# PINK1 expr mod = modulators of PINK1 expression; hit rate 0.2% among 410,000; PINK1 immunofluorescence, high-content cytometry, 24 h; AID 624263; Potency, µM (doses to about 76.6 µM), for inactives: at the top dose activation (PINK1 increase), actives largely listed as activators; active = well fitted activation curve with a large enough effect; inconclusive = small, poorly fitted or top-dose-only effect; inactive = flat fitted curve, though single readings scatter; cell line not stated here;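 further: potency means the concentration at half of the fitted maximal effect; % of control where 0% means no effect; nearly all actives have a fitted effect of over 65% in size; a mitochondrial uncoupler was the plate control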
#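 Cells are seeded, rested 12 hours, then given compound at five concentrations or DMSO for 24 hours. After fixation, blocking and antibody staining, PINK1 amount and mitochondrial localization are scored; CCCP serves as control.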
# Six1-Eya2 blk = Six1/Eya2 interaction inhibition | hit rate 0.56% among 360,000 | Q15475+O00167 | AID 651725 | activity change, % (concentration not given with the values) | AlphaScreen GST-Six1/His-Eya2 binding, biochemical; hits give low values; control for the full effect not named in the record; in the data active = activity change below about -65%; inconclusive = about -30% to -65%; inactive = above about -30%; further: on the % scale 0 is the no-effect control and ±100 the full control effect
#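 AlphaScreen with GST-Six1 and His-Eya2 (5X mix: 250 nM and 500 nM), glutathione donor and nickel acceptor beads; buffer 50 mM Tris pH 8.0, 300 mM NaCl, 1 mM TCEP; 1 h at 37 C in the dark.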
# D2 ag = activates the human D2 dopamine receptor | DiscoveRx PathHunter D2 beta-arrestin, luminescence, 90 min; 100% = 57 uM dopamine signal | hit rate 0.084% among 360,000 | activation, % (test concentration not listed) | P14416; in the data active = activation above about 40%; inconclusive = about 15% to 40%; inactive = below about 15%; further: compound concentration not given in the record; the text of the record calls up to 30% inactive
# Target sequence (P14416 whole entry, looked up): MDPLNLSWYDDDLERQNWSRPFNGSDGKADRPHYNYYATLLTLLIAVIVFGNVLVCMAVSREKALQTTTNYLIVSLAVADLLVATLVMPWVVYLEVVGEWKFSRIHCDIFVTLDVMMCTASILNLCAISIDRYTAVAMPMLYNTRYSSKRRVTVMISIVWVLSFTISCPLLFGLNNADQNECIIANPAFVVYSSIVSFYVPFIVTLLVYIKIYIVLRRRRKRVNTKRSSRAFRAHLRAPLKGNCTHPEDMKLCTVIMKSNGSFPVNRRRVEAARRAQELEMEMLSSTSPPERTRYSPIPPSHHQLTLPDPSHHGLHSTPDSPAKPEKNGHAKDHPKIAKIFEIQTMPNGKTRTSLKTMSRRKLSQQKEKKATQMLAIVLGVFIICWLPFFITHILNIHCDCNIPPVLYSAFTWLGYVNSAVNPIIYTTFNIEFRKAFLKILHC
#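 DiscoveRx PathHunter D2 beta-arrestin cells (2,100/well) attached overnight, then compound-stimulated 90 min at 37 C in HBSS/10 mM HEPES/0.1% Tween-20 buffer; beta-galactosidase complementation read by luminescence after 1 h at ambient temperature. Dopamine 57 uM final (EC100) as control.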
# TRPML1 inh = inhibitors of human TRPML1 channel; Q9GZU1; TRPML1-inducible cells, Ca2+ dye fluorescence, FDSS; hits give low values; inhibition of EC80 agonist-evoked calcium signal; activity change, negative = inhibition, % (test concentration not listed); hit rate 0.02% among 390,000; AID 624415; in the data active means activity change below about -50%; inconclusive means about -30% to -50%; inactive means above about -30%;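 further: stimulus is agonist 54-4 at its EC80 concentration; on the % scale 0 is the no-effect control and ±100 the full control effect; compound concentration not given in the record; the text of the record puts the active cut at -80%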
# Target sequence (Q9GZU1 whole entry, looked up): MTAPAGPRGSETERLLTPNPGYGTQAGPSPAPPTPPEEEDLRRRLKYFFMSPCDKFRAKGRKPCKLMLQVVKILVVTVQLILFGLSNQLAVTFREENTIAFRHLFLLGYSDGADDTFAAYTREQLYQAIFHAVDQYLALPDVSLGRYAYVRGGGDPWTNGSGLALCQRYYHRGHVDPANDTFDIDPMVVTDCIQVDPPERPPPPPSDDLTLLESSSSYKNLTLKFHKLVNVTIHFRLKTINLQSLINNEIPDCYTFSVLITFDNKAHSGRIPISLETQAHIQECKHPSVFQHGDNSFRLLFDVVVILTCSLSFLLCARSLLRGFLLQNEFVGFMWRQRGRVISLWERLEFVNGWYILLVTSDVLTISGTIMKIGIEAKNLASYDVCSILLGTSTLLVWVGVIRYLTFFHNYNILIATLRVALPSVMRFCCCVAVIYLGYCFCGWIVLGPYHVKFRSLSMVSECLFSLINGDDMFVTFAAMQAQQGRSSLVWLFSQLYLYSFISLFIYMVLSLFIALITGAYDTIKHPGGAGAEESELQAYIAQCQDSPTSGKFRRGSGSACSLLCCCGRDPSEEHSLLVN
#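 TRPML1-DL cells, Tet-induced overnight (~16 h, 37 °C) at 1,500 cells/well, were loaded with Ca8 no-wash dye plus quencher for 45-90 min at room temperature. Compounds were pinned during FDSS kinetic reading; agonist 54-4 at EC80 (4 uM final) then added.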
# TRPML1 agonist = human mucolipin-1 channel agonism | activation, % (concentration not given with the values) | TRPML1-expressing cells, Ca2+ dye fluorescence, FDSS; host cell line not named in the record; reference of the full effect not given here | hit rate 0.12% among 410,000; in the data active = activation above about 50%; inconclusive = about 30% to 50%; inactive = below about 30%; further: 0% is about no effect; the text of the record puts the active cut at 80%
#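 Cells: TRPML1-DL, 1X Tet inducer, ~16 h at 37 degrees C/5% CO2. Dye: ABD Ca8 no-wash + quencher, 45-90 min RT. Read: 10 s baseline, compound add, 110 s agonist phase; 54-4 EC80 (4uM final), 110 s antagonist phase.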
# CtBP-E1A inh = inhibitors of CtBP/E1A interaction; AlphaScreen GST-E1A/His-CtBP binding, 1536-well; hits give low values; control for the full effect not named in the record; activity change, % (test concentration not listed); hit rate 0.49% among 340,000; in the data active means activity change below about -65%; inconclusive means about -30% to -65%; inactive means above about -30%; further: on the % scale 0 is the no-effect control and ±100 the full control effect; compound concentration not given in the record
#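 In 5 uL wells, 23 nL compound meets equimolar GST-E1A and His-CtBP (5X stock 125 nM each) for 2 h, 37 °C. Beads (5X, 50 ug/mL) then 1 h, 37 °C, dark.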
# The depositor's hits bear a star; u = inconclusive; x = not tested or not shown; [ ] = another dose, or the depositor's remark.
item	SMILES	PINK1 expr mod	Six1-Eya2 blk	D2 ag	TRPML1 inh	TRPML1 agonist	CtBP-E1A inh
1	COc1ccc(C)cc1N1CC(C(=O)Nc2ccccc2C(=O)NC2CC2)CC1=O (configuration not stated)	1.3%	1	u	-6	-0.2	x
2	CCCN(C(=O)c1cc2c(=O)oc3ccccc3c2s1)c1ccc(CC)cc1	0.4%	x	x	4	-0.3	x
3	Cn1c(=O)cc(SCC(=O)NCc2ccc(F)cc2)c2cc(Cl)ccc21	12%	x	x	11	-0.2	x
4	Cc1ccc2c(Cl)cc(Cl)c(OCC(=O)Nc3cccc(S(=O)(=O)N(C)C)c3)c2n1	1.7%	-3	-3.5	44	1.4	2
5	Cn1c(/N=C/c2ccc3c(c2)OCO3)nc2ccccc21	6.1%[38.3 µM]	6	-2.4	22	0.9	-3
6	CC(C)N1CCCC(C)(C(=O)Nc2ccc3c(c2)OCO3)C1 (configuration not stated)	-0.6%	12	-4.1	x	-0.2	1
7	CCOC(=O)CN1C(=O)SC(Nc2ccc(C)cc2)C1=O (configuration not stated)	1.4%	15	-8.0	11	0.0	-13
8	COc1ccc(-c2csc(NC(=O)CS(=O)(=O)c3ccccc3)n2)c(OC)c1	1.1%	-11	-0.3	-10	0.0	2
9	CCCNC(=O)c1c(N)n(-c2cc(OC)cc(OC)c2)c2nc3ccccc3nc12	0.2%	36	-5.6	3	-0.1	46
10	CC(=O)c1ccccc1OCCOCCOc1ccccc1C(C)=O	-0.9%	7	4.0	22	-0.3	3
11	CCN(CC)C(=O)C(=O)N/N=C/c1ccc(Br)cc1	-0.4%	7	-4.9	-14	4.5	-3
12	COc1ccc(NC(=O)CSc2nnc3ccc(-c4ccccn4)nn23)c(OC)c1	2.9%	4	-3.7	16	-0.8	-1

# Reprinted from the part before: 3 entries, then new ones.
item	SMILES	PINK1 expr mod	Six1-Eya2 blk	D2 ag	TRPML1 inh	TRPML1 agonist	CtBP-E1A inh
10	CC(=O)c1ccccc1OCCOCCOc1ccccc1C(C)=O	-0.9%	7	4.0	22	-0.3	3
11	CCN(CC)C(=O)C(=O)N/N=C/c1ccc(Br)cc1	-0.4%	7	-4.9	-14	4.5	-3
12	COc1ccc(NC(=O)CSc2nnc3ccc(-c4ccccn4)nn23)c(OC)c1	2.9%	4	-3.7	16	-0.8	-1
13	CCNC(=O)COc1ncnc2scc(-c3ccc(F)cc3)c12	2.2%	4	-0.1	-4	-0.9	-3
14	CCOc1ccc(-c2noc(CCCC(=O)NCC3CCCO3)n2)cc1OC (configuration not stated)	1.8%	0	0.3	17	0.3	-16
15	COC(=O)[C@@H]1C[C@H]2CC[C@H](O)C[C@H]2N1Cc1ccccc1OC(=O)c1cccs1	0.1%	2	-3.0	4	2.3	-1
16	O=C(CSc1nnc(-c2ccc3c(c2)OCCO3)o1)N1CCCC1	-4.0%	14	-2.4	42	1.9	23
17	CC(=O)c1c(-c2ccccc2)c2cc(Cl)ccc2[nH]c1=O	-1.3%	13	-0.6	3	1.3	-12
18	O=C(c1ccco1)N1CCN(C(=O)c2cnn3cccnc23)CC1	x	-1	0.9	6	-0.3	9
19	Cc1ccc(C2(C)NC(=O)N(CC(=O)Nc3ccccc3C(=O)NC3CCCC3)C2=O)cc1 (configuration not stated)	-1.2%	-2	-1.3	-4	0.0	5
20	NS(=O)(=O)c1ccc(CCNS(=O)(=O)c2cccc3cccnc23)cc1	-2.0%	4	5.5	-2	2.6	3
21	CCCNC(=O)C1CC(=O)N(c2ccc(OCc3ccccc3)cc2)C1 (configuration not stated)	17%	-2	0.8	-2	-0.2	0
22	CC(C)c1nnc(N2C(=O)c3oc4ccccc4c(=O)c3C2c2cccc(O)c2)s1 (configuration not stated)	2.2%	x	x	-9	-0.2	x
23	COc1cc(CC(=O)C(=O)O)oc(=O)c1	-0.2%	-4	-4.3	-4	0.2	-1
24	O=C(c1oc(=O)c2ccccc2c1-c1ccccc1)N1CCOCC1	-0.7%	0	-3.5	-4	-0.9	4
25	Cc1ccccc1C(=O)c1cccn1CC(=O)NCc1ccc2c(c1)OCO2	-1.3%	2	-1.1	-11	0.5	3
26	CC(=O)C1=NOC2C(=O)N(c3ccccc3)C(=O)C12 (configuration not stated)	0.7%	-1	-5.7	-7	-0.7	x
27	CC(C)(C)c1ccc(S(=O)(=O)NCc2ccccn2)cc1	-0.1%	0	-4.1	3	0.1	-9
28	CC1CN(C(=O)COC(=O)c2nn(-c3ccccc3)c(=O)c3ccccc23)CC(C)O1 (configuration not stated)	1.3%	2	1.0	43	2.7	x
29	CCN(CC)CCn1c(=S)[nH]c2cc(C(=O)NCCc3ccc(OC)c(OC)c3)ccc2c1=O	-1.4%	-1	-2.6	1	-0.5	0
30	O=C(Nc1ccc(Cl)cc1)c1cc2nc(C3CC3)cc(C(F)(F)F)n2n1	12%[38.3 µM]	4	-1.0	10	2.1	4
31	CCOC(=O)c1sc(-c2ccc(Cl)cc2Cl)nc1O	3.0%	13	-2.5	14	0.5	6
32	CCNC(=O)NC(C(=O)OC)C12CC3CC(CC(C3)C1)C2 (configuration not stated)	0.6%	1	-3.4	5	0.2	9
33	CC(C)N1CCC(C)(C(=O)Nc2ccc(-n3cccc3)cc2)C1 (configuration not stated)	2.5%	8	-1.2	x	-0.2	-15
34	C=C(C)C(=O)OCC(C)C	-0.1%	-1	-1.1	1	-0.8	0
35	CCC(C)NC(=O)c1cn(CCOC)c(=O)c2c1c1ccccc1n2C (configuration not stated)	3.5%	3	-5.2	9	-0.3	-10
36	Cc1ccc(NS(=O)(=O)N2CCOCC2)cc1	1.1%	0	0.0	10	-0.4	6
37	Cc1[nH]c2ccccc2c1C(=O)CN1CCCCC1CCO (configuration not stated)	2.2%	-1	-0.9	-2	0.7	-1
38	Cc1ccc(-c2c[n+]3c(n2-c2ccccc2)SCC3)cc1	-4.0%	5	-1.5	2	1.6	-1
39	COc1cc(NC(=O)c2cccs2)c(OC)cc1NC(=O)CCC(=O)Nc1cccc2ncccc12	2.8%	-82*	-1.0	7	0.0	-87*
40	Cc1ccc(S(=O)(=O)N(CC(O)CN2C(=O)NC(C)(C)C2=O)c2ccccc2)cc1 (configuration not stated)	0.9%	1	-0.6	37	-0.3	3
41	O=C(NNC(=O)c1ccc(O)c(Cl)c1)c1cccc(S(=O)(=O)N2CCOCC2)c1	-7.5%	-16	-3.4	-7	0.7	-19
42	CCOc1ccccc1N1CCN(c2nc(N)c(C#N)c(CC#N)c2C#N)CC1	7.1%	-9	3.4	55	2.8	2
43	Clc1ccccc1OCCSc1nnc(-c2cccs2)o1	3.9%	x	x	10	3.9	x
44	Cc1ccccc1-n1c(=O)c2ccccc2n(Cc2ccc(F)cc2)c1=O	0.6%	x	x	25	-0.9	x
45	Cc1cccn2cc(-c3cccc(S(=O)(=O)N4CCCCC4)c3)nc12	0.3%	-22	-1.3	16	0.4	-25
46	Nc1nnc(SCC(=O)NC2CCCCC2)s1	-2.0%	-3	-1.9	3	-0.3	6
47	CC1=[N+](C)N(c2ccccc2)C(=O)C1N=C/C=C/c1ccccc1 (configuration not stated)	0.3%	1	-5.0	2	-0.3	x
48	CCn1c(SCC(=O)NCCc2ccc(F)cc2)nnc1-c1cccs1	-2.1%	2	-3.2	-5	-1.2	2
49	CC(=O)Nc1nc2ccccc2n1CCN1CCOCC1	-1.9%[38.3 µM]	5	-2.3	-7	0.1	6
50	Cc1c(CCC(=O)O)c(=O)oc2cc(O)ccc12	-2.1%	0	0.5	9	-0.7	12
51	c1cncc(C(c2nnnn2C2CCCC2)N2CCN(Cc3ccc4c(c3)OCO4)CC2)c1 (configuration not stated)	-0.5%[38.3 µM]	-2	-0.7	13	-0.1	-4
52	Cc1ccc(Nc2nnc(C)c3ccccc23)c(C)c1	0.0%	-1	-3.5	17	-0.1	x
53	Cc1cc(NS(=O)(=O)c2ccc(NC(=O)c3ccoc3C)cc2)nc(C)n1	-3.8%	-22	-1.5	11	0.4	-11
54	Cc1cc(-c2ccc(S(=O)(=O)N3CCN(c4cccc(C(F)(F)F)c4)CC3)s2)on1	3.9%	2	-1.3	0	-0.6	4
55	Cc1cccc2c1NC(=O)C2=Nc1ccc(Cl)cc1	-0.3%	10	-18	1	0.2	-8
56	C[C@H]1CN([C@@H](C)CO)C(=O)c2cccc(NC(=O)C3CC3)c2O[C@H]1CN(C)S(=O)(=O)c1cccs1	1.6%	0	2.0	-7	-0.7	4
57	CCC1=Nc2cc(C(=O)NCC3CCCO3)ccc2Sc2ccc(Br)cc21 (configuration not stated)	-1.1%	-5	-2.2	44	0.3	-7
58	Cc1cc(C)cc(OCC(=O)NNC(=O)CCN2C(=O)c3ccccc3C2=O)c1	3.6%	5	-6.4	6	-0.7	0
59	C/C(=N\NC(=O)c1ccccc1)c1ccccc1F	1.6%	4	4.4	-10	0.1	0
60	O=C(Nc1ccc(Cl)c(C(F)(F)F)c1)c1nc2ccccc2nc1N1CCCCC1	10%	x	x	-16	16	x
61	N#Cc1nc(-c2cccc3ccccc23)oc1NCC1CCCO1 (configuration not stated)	2.1%	21	-0.4	1	-0.6	20
62	COc1ccc2c(c1OC)C(=O)OC2Nc1nc(-c2cc3ccccc3oc2=O)cs1 (configuration not stated)	12%	2	-1.1	-9	1.1	-4
63	COc1cccc(NS(=O)(=O)c2ccc3[nH]cc(C(=O)NCCC(C)C)c(=O)c3c2)c1	0.5%	-17	4.7	7	0.6	-4
64	CC(OC(=O)c1cc[n+]([O-])cc1)C(=O)Nc1ccc(Cl)cn1 (configuration not stated)	-2.3%	-6	-3.7	-6	-1.4	1
65	O=C(CSc1nnc(CNC(=O)c2c(F)cccc2F)o1)NCc1ccc(F)cc1	-1.1%	0	2.4	-5	-0.4	2
66	COc1ccc(CCNC(=O)C(=O)NCC(c2ccc3c(c2)OCO3)N2CCOCC2)cc1OC (configuration not stated)	0.0%	x	x	-9	0.7	x
67	CC(C)(C)NC(=O)C1CC(=O)OC12CCOC(C)(C)C2 (configuration not stated)	-0.8%	6	-5.5	14	2.6	14
68	COc1cc(SC)ccc1C(=O)Nc1cccc(S(=O)(=O)NC2=NCCC2)c1	1.0%	-20	-1.5	-10	-0.5	-26
69	O=C(NCC1CCCO1)C1CCN(CC2CCCCC2)CC1 (configuration not stated)	2.2%	4	-1.8	-8	-0.6	3

# A draw from above in order of molecular weight, high to low.
item	SMILES	PINK1 expr mod	Six1-Eya2 blk	D2 ag	TRPML1 inh	TRPML1 agonist	CtBP-E1A inh
66	COc1ccc(CCNC(=O)C(=O)NCC(c2ccc3c(c2)OCO3)N2CCOCC2)cc1OC (configuration not stated)	0.0%	x	x	-9	0.7	x
62	COc1ccc2c(c1OC)C(=O)OC2Nc1nc(-c2cc3ccccc3oc2=O)cs1 (configuration not stated)	12%	2	-1.1	-9	1.1	-4
68	COc1cc(SC)ccc1C(=O)Nc1cccc(S(=O)(=O)NC2=NCCC2)c1	1.0%	-20	-1.5	-10	-0.5	-26

# Compound activity: PubChem, National Center for Advancing Translational Sciences (NCATS)
